# Source: PubChem BioAssay
# UUG fidelity = modulators of yeast start codon fidelity, primary screen, whole organism, S. cerevisiae, single point, plate reader; S. cerevisiae UUG-firefly luciferase reporter, luminescence/redox ratio; activity score, % at 18.7 µM; hit rate 0.13% among 350,000;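 active = replicate mean at a twofold rise or more, about +100% in these data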;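 also: firefly luciferase made from a UUG start codon reports start codon fidelity; reporter light over untreated wells divided by growth signal over untreated wells; some hits fall short of that in this replicate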
# MT1-MMP act inh = blockers of MT1-MMP proenzyme processing, primary screen, HT1080 RFP-PRO-GFP cells, GFP/RFP fluorescence | GFP/RFP ratio fluorescence, overnight; percent of plate control window, DMSO zero | GFP/RFP ratio change, % at 20 µM | hit rate 0.061% among 360,000 | AID 651647, 2012;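 active = GFP/RFP ratio change of at least 30% with cell ATP level not reduced by more than half and red fluorescence within 50% of control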; also: strong numbers were not always called active
#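 Read-out: GFP/RFP fluorescence ratio; Test system: RFP-PRO-GFP reporter HT1080 cells; Compound dosing: single-point 20 µM compound, 1% DMSO; Times: overnight compound exposure at 37 °C.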
# CSC inhib = cancer stem cell viability inhibitors, primary screen, luminescence. cancer stem cell-like cells viability. inhibition, % at 7.5 µM. hit rate 1.1% among 300,000. AID 2717, 2010;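 active = mean at 75% or more and at least half the replicates too; inconclusive = mean and replicates disagree; tested in HMLE shEcad cells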;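 also: 0% = median of negative and 100% = median of positive control wells; the first replicate is given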
# HIV Env fusion = inhibitors of HIV-1 Env-driven cell-cell fusion, primary screen, HeLa-JRFL effector, CEM21 target cells, luciferase | AID 651610, 2012 | hit rate 1.1% among 360,000 | inhibition, % at 12.3 µM;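 active = mean replicate inhibition score of at least 50 and every replicate individually at or above 50; inconclusive = only one of the two criteria met; inactive = mean below 50 and not all replicates reaching 50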;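 also: 0% = plate neutral controls and 100% = maraviroc near 300 nM; one replicate is shown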
# Rce1 inhib = yeast Rce1p protease inhibitors, primary screen, biochemical, fluorescence, cell-free homogeneous | hit rate 0.27% among 290,000 | calls only | yeast membranes, quenched prenylated peptide cleavage fluorescence | CAAX prenyl protease 2 (Saccharomyces cerevisiae (strain ATCC 204508 / S288c)), Q03530;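 active = fall in fluorescence gain of 50% or more versus controls, with final raw signal at or below 3038400; inconclusive = same 50% fall but final raw signal above 3038400; inactive = fall in fluorescence gain under 50%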;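 also: plate controls were neutral control wells for no effect and wells lacking membranes for full effect; tested at 10 µM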
# PABP FP inh = PABP poly(A) RNA binding inhibitors, primary screen, biochemical, fluorescence polarization, uHTS; inhibition, % at 35 µM; hit rate 1% among 290,000; AID 2014, 2009;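 active = 50% or more with normal probe brightness, or confirmed in later tests; inconclusive = above 50% with abnormal brightness, or retests that disagree; inactive = below 50% or failed in later tests; about a fifth of its hits are not listed in these tables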;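 also: calls also rest on retests at 20 µM and on dose response follow-up; controls were probe without protein and protein plus probe with vehicle; some compounds called inactive have numbers as strong as hits; many hits fall short of the cut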
# Target sequence (P11940 whole entry, looked up): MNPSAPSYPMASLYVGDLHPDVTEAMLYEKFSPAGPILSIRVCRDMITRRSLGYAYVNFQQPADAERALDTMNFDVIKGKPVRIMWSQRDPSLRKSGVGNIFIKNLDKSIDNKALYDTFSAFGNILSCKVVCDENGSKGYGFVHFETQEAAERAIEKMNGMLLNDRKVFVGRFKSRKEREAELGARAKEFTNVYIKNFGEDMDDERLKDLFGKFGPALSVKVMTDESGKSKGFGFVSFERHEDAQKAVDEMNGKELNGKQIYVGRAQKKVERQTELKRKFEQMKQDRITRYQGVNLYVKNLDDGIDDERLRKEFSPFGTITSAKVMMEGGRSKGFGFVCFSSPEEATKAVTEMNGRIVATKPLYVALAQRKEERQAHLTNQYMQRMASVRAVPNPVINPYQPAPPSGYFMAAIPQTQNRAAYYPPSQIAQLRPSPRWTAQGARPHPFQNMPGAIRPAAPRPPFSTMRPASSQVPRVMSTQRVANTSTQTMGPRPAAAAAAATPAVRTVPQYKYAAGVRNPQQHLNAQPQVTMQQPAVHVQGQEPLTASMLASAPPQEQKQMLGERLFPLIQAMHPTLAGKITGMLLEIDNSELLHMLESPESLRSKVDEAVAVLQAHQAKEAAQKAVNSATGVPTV
# eIF4H FP inh = human eIF4H binding inhibitors, primary screen, translation initiation inhibitor project, biochemical, uHTS, fluorescence polarization; hit rate 0.94% among 290,000; inhibition, % at 35 µM; eIF4H fluorescence polarization binding assay; Eukaryotic translation initiation factor 4H (Homo sapiens), Q15056;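 active = 50% or more with normal probe brightness, or confirmed in later tests; inconclusive = above 50% with abnormal brightness, or retests that disagree; inactive = below 50% or failed in later tests; about a fifth of its hits are not listed in these tables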;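 also: calls also rest on retests at 20 µM and on dose response follow-up; 0% = protein and probe with vehicle and 100% = probe without protein; strong numbers were not always called active; many hits fall short of the cut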
# eIF4H FP inh retest = second read-out of eIF4H FP inh, no call of its own (marks repeat the call); inhibition, %; compound at 20 µM; confirmation average;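 mean of two retest wells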
# PABP FP inh retest = further read-out of PABP FP inh, marked with its call; inhibition, %; compound at 20 µM; confirmation repeats;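 mean of two retest wells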
# MT1-MMP act inh RFP = second read-out of MT1-MMP act inh, no call of its own (marks repeat the call); RFP signal change, %; measured here: RFP expression control read;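 0 = vehicle wells; hits needed this value within 50% of zero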
# Active calls of the source: *; i = inactive; ? = inconclusive; . = no result given. Outcome played no part in choosing rows; overall some 2.9% were active at least once.
SMILES,UUG fidelity,MT1-MMP act inh,MT1-MMP act inh RFP,CSC inhib,HIV Env fusion,Rce1 inhib,PABP FP inh,eIF4H FP inh,others
COC(=O)C1=C(C(=O)OC)[C@@H]2N(Cc3ccccc3)c3ccccc3[C@@]23C[C@@H](C(=O)OC)N(C(=O)c2ccc(Br)cc2)C3=N1,-6,-12,-11,-4,.,i,12,-2,
O=C(Cc1cccs1)Nc1nc(-c2cccnc2)cs1,-24,0,-11,.,12,i,9,15,
CCc1cc(=O)oc2cc(C)cc(OCC(=O)NCCCn3ccnc3)c12,-12,-7,-1,38,-6,i,16,-10,
O=C(O)c1cccc(NS(=O)(=O)c2cc(S(=O)(=O)c3ccc(Cl)cc3)ccc2Cl)c1,3,2,-1,-11,-13,i,12,-10,
CS(=O)(=O)N(CCC#N)Cc1ccc(C=O)o1,3,0,2,-4,-4,i,10,0,
CC(C)(C)NCc1ccccc1OCc1cccs1,.,-5,-1,6,.,i,6,-1,
COc1cc(C(=O)Nc2ccc3c(c2)CCN3C(C)=O)cc(OC)c1OC,.,15,-4,61,-74,i,10,-1,
CCc1nc(SCC(=O)NCCc2ccccc2)c2oc3ccccc3c2n1,-12,-4,-7,-12,49,i,-2,3,
Cc1noc(C)c1S(=O)(=O)Nc1ccc(C(=O)Nc2ccc(OC(F)(F)F)cc2)cc1,-17,10,-4,27,-8,i,-9,-9,
CCCn1ncc(CN2CCC(CO)(CC3CCCCO3)CC2)c1C (centres undefined),.,1,0,-3,16,i,-7,-6,
O=C(O)c1ccccc1C(=O)OCCCCOC(=O)c1ccccc1C(=O)O,0,-1,5,.,-33,i,11,-12,
COc1ccc(CN2C(=O)c3ccccc3C2C(=O)NC2CCCC2)c(OC)c1 (centres undefined),-13,3,3,.,-12,i,3,-1,
O=C(Cn1cnc2c(nnn2-c2ccccc2)c1=O)NCc1ccc(F)cc1,-12,8,4,-8,-10,i,-30,-15,
Cc1cc(C(=O)OC(C)C(=O)NC2CCCCC2C)c(C)o1 (centres undefined),-10,-1,-4,-21,5,i,.,.,
CCOC(=O)c1ccc(-c2ccc3c(=O)c4ccccc4n(C)c3c2)cc1F,-17,0,1,-1,2,i,13,-6,
O=C(c1ccc(OC2CCN(C/C=C/c3ccc(F)cc3)CC2)cc1)N1CCCC1,-2,-7,-9,-9,-1,i,-9,-3,
Cc1ccc2c(c1)N(S(=O)(=O)c1ccc(CN3C(=O)c4cccnc4C3=O)cc1)CCO2,-8,-1,0,5,-9,i,.,.,
Cn1cccc1C(=O)C(=O)Nc1ccc(Cl)cc1,-33,-2,0,-3,.,i,-2,-12,
Cc1[nH]nc2c1C(c1ccsc1C)C(C#N)=C(N)O2 (centres undefined),.,-8,2,1,.,i,3,2,
O=C(N=C1SC2CS(=O)(=O)CC2N1c1ccc(Br)cc1Cl)C1CC1 (centres undefined),-18,-5,-3,0,-15,i,-3,-2,
CC1CCCCC1NC(=O)CCNS(=O)(=O)c1cc(Br)cnc1N (centres undefined),2,-1,0,-12,4,i,.,.,
Cc1nc2ccc(F)cc2cc1C(=O)Nc1cccc(Cl)c1C,.,1,6,1,4,i,-2,-4,
O=C(NC1CC1)C1CCN(C(=O)c2ccc(Cl)cc2)CC1,-7,0,2,-12,5,i,11,1,
CCCOc1c(Cl)cc(/C=N/O)cc1OCC,-6,0,-3,15,.,i,-3,2,
Cc1ccc(/C=C2/SC(=S)N(C3CCCCC3)C2=O)o1,7,5,17,4,-9,i,-7,5,
CCS(=O)(=O)N1CCC(C(=O)NCCCN2CCCC2)CC1,-14,0,0,-20,-31,i,-2,35,
COc1ccccc1NC(=O)CCc1nnc2ccc(N3CCC4(CC3)OCCO4)nn12,.,-1,-3,9,-1,i,-2,0,
COc1ccc(N2CCN(Cc3nc4c(c(=O)[nH]c(=O)n4C)n3CCCc3ccccc3)CC2)cc1,8,-4,-2,-3,.,i,-6,2,
O=C(NNC(=O)C1CCN(S(=O)(=O)c2ccc(Cl)cc2)CC1)c1ccccc1O,-24,-1,1,37,18,.,.,.,
C=CCn1c(=O)c2c3c(sc2n2c(Nc4ccccc4)nnc12)CCCC3,-10,-2,-6,46,.,i,2,10,
S=C1N(c2ccccc2)C(c2ccc(Br)cc2)N2CCCN12 (centres undefined),-5,-2,-5,3,11,i,-6,0,
CCOc1ccc(/C=N/NC(=O)CSc2n[nH]c(=O)[nH]c2=O)cc1OC,-16,2,4,-10,2,i,-3,1,
Cc1cccc(C)c1OCC(=O)OC/C(O)=C(\C#N)c1nc2ccccc2[nH]1,-23,0,7,-2,.,i,-4,28,
CN(C)/C=C(/C(=O)c1ccccc1)S(=O)(=O)c1ccc(Cl)cc1,.,0,4,-9,12,i,4,1,
CC1=CC(C)(C)N2C(=O)C3(C(C#N)=C(N)Oc4cc(C)oc(=O)c43)c3cccc1c32 (centres undefined),11,5,1,-10,.,i,2,11,
Cc1ccc(-c2csc(N3CCC[C@@H]3C(=O)NCCn3c(C(F)(F)F)nc4ccccc43)n2)cc1,20,4,-11,-3,19,i,-5,0,
CCc1ccc(S(=O)(=O)NC(=S)NC2CCCCC2)cc1,.,-4,-2,4,23,i,3,-14,
COc1cccc(Nc2nc(C(N)c3ccccc3)cs2)n1 (centres undefined),-10,-6,3,.,12,.,.,.,
CCCC(=O)Nc1cc(C(=O)O)ccc1Sc1ccc(C)cc1,.,-5,-2,0,3,i,4,-1,
CCOCCCNC(=O)c1ccc(OC2CCN(C(C)=O)CC2)c(OC)c1,-16,6,2,-5,5,i,-15,-12,
CC(C)(C)OC(=O)N1CCC[C@H]1c1nnc(SCc2ccccc2F)o1,-1,0,2,-3,.,i,4,-11,
COc1ccc(OCCSc2nnc(-c3ccc(OC)cc3)n2N)cc1,-13,1,3,-9,.,i,0,8,
CC(Oc1ccc(-c2ccccc2)c(F)c1)c1ccn(S(=O)(=O)c2ccc(Br)cc2)n1 (centres undefined),-12,-10,-11,25,?,i,5,-2,
CCN(CC)c1cccc(OC(=O)c2cccnc2Cl)c1,-3,-4,0,-5,7,i,10,2,
CCN(c1ccccc1)S(=O)(=O)c1cc(NC(=O)COC(=O)C2CC2)ccc1Cl,.,2,0,-1,-11,i,4,3,
COC(=O)COc1ccc2cc(-c3ccccc3)c(=O)oc2c1,-15,-6,-3,-7,2,i,.,.,
CCN1C(=O)[C@H]2[C@@H](c3ccc(C)cc3)N3C(=O)N(c4cccc(Cl)c4)C(=O)[C@@]3(CC(C)C)[C@H]2C1=O,-15,0,2,-8,9,i,.,.,
Cc1ccnc(NC(=O)C2CCN(S(=O)(=O)c3ccc4c(c3)CC(C)N4C(=O)C3CCC3)CC2)c1 (centres undefined),-4,-4,-17,-2,15,i,-4,3,
Cn1c(SCC(=O)Nc2ccc(NC(=O)c3cccc(F)c3)cc2)nnc1-c1ccncc1,-18,0,2,0,-2,i,-4,4,
COC(=O)c1cccc2c1C(=O)c1cc([N+](=O)[O-])ccc1-2,-17,0,5,.,-80,.,.,.,
Cn1ncc(Cl)c1C(=O)Nc1ccncc1,-27,-5,-4,16,-40,i,0,0,
C=CCn1c(SCn2nnc3ccccc3c2=O)nc2scc(-c3cccs3)c2c1=O,.,-4,-5,48,-25,i,4,-8,
CN1CCN(CCOc2cccc(Cl)c2)CC1,-19,3,0,4,-84,i,1,-13,
CCCCC1S/C(=N/N=C/c2ccc(OC)cc2)N(Cc2ccc(OC)cc2)C1=O (centres undefined),-7,-5,-10,-1,22,i,0,-4,
COCCn1c(=NC(=O)/C=C/c2cccs2)sc2cc(NC(C)=O)ccc21,-3,.,.,-7,18,i,-7,-9,
CC(=O)CCc1c(C)[nH]c2ccccc2c1=O,-16,-2,0,1,.,i,8,3,
COc1ccc(C2CC(c3ccccc3)=NN2C(=O)COC(=O)c2cc(S(=O)(=O)N3CCOCC3)ccc2Cl)cc1 (centres undefined),.,0,-3,-25,.,i,13,-2,
CCCNC(=O)c1cc(C2CCCCN2C(=O)CCCc2ccccc2)on1 (centres undefined),-4,-3,-4,.,7,.,.,.,
CC(=O)Nc1ccc(NC(=O)c2ccc(N(C)S(=O)(=O)c3ccc(C)cc3)cc2)cc1,5,-5,-6,7,-1,i,-4,-4,
c1ccc(CCNC2=NCCCS2)cc1,.,5,6,3,.,i,-7,-1,

# Reprinted from the entries so far (four entries):
SMILES,UUG fidelity,MT1-MMP act inh,MT1-MMP act inh RFP,CSC inhib,HIV Env fusion,Rce1 inhib,PABP FP inh,eIF4H FP inh,others
O=C(N=C1SC2CS(=O)(=O)CC2N1c1ccc(Br)cc1Cl)C1CC1 (centres undefined),-18,-5,-3,0,-15,i,-3,-2,
CC1CCCCC1NC(=O)CCNS(=O)(=O)c1cc(Br)cnc1N (centres undefined),2,-1,0,-12,4,i,.,.,
Cc1nc2ccc(F)cc2cc1C(=O)Nc1cccc(Cl)c1C,.,1,6,1,4,i,-2,-4,
O=C(NC1CC1)C1CCN(C(=O)c2ccc(Cl)cc2)CC1,-7,0,2,-12,5,i,11,1,

# (continued)
SMILES,UUG fidelity,MT1-MMP act inh,MT1-MMP act inh RFP,CSC inhib,HIV Env fusion,Rce1 inhib,PABP FP inh,eIF4H FP inh,others
CCCCc1c(C)nc2ccccc2c1SCCC(=O)O,-16,-1,-2,-1,25,i,85,9.8*,eIF4H FP inh retest=90*;PABP FP inh retest=3
COc1ccc(N2CCN(C(CNC(=O)C(=O)NCCCn3ccnc3)c3cccnc3)CC2)cc1 (centres undefined),.,-3,-1,-10,-2,i,-5,8,
C[C@H](NC(=O)OC(C)(C)C)c1nnc(SCC(=O)Nc2cccc(Cl)c2)o1,-12,-2,0,-10,-2,i,2,-7,
CN(CCc1ccccn1)C(=S)Nc1ccc(Cl)cc1Cl,-14,5,2,2,8,i,-9,9,
O=C(c1cccc(-n2cccc2)c1)N1CCN(S(=O)(=O)c2c(F)cccc2F)CC1,-2,-5,-2,-8,-9,i,30,88,eIF4H FP inh retest=48;PABP FP inh retest=24
COc1ccc(C(=O)Nc2ccc(NC(=O)c3ccccc3OC)nc2)cc1,-10,8,-8,12,19,i,-1,-8,
CCNC(=O)N(C)c1c(CC)nc2ccc(C(=O)N3CCN(C(C)=O)CC3)cn12,-11,4,6,.,-4,.,.,.,
O=C(OCc1ccccn1)C1CCN(C(=O)c2ccc(Cl)cc2)CC1,.,3,-1,.,32,i,.,.,
COc1ccc(NC(=O)CCN2CCN(S(=O)(=O)c3cc(Cl)ccc3Cl)CC2)cc1,-6,5,-2,25,-39,i,-2,5,
CS(=O)(=O)Nc1ccc(C2=NN(C(=O)c3ccco3)C(c3cccc(F)c3)C2)cc1 (centres undefined),0,0,-2,-5,-3,i,9,6,
COc1cc(CNCCO)cc(Br)c1OCc1ccccc1Cl,-15,2,0,29,-10,i,-6,-10,
O=c1c(Cc2c(F)cccc2Cl)c(O)ccn1Cc1ccc(F)cc1,.,2,-1,-11,9,i,-11,0,
CC(C)CCN1CC(O)=C(c2nc3ccccc3[nH]2)C1=N,3,11,4,3,-88,i,6,2,
